FPR binder: binds the human formylpeptide receptor FPR; 24,000 tested, 0.74% active; AID 440; inhibition, %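 (tested at 6.7 µM)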; P21462; FPR-expressing cells, fluorescent ligand binding, flow cytometry;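 also: 0% = buffer wells and 100% = receptor blocker peptide wells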
Target sequence (P21462 whole entry, looked up): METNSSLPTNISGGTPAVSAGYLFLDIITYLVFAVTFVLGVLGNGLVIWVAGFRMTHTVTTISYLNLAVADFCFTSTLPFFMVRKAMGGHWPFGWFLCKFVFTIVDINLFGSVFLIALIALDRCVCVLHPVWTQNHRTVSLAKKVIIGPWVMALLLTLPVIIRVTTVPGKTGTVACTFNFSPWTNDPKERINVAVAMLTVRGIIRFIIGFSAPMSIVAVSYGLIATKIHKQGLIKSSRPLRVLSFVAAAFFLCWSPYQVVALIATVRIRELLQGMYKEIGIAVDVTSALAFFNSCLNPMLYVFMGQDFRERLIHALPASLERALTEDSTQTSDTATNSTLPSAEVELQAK
VCAM-1 down: suppression of endothelial VCAM-1 upregulation – cell-based, plate reader, pooled HUVEC, TNFa stimulus (AID 454). 10,000 tested, 0.2% active. HUVEC TNFa-induced VCAM-1 surface immunofluorescence, plate reader; numbers were filed only for top-ranked candidate wells. inhibition, % at 5 µM;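 active = compound among top-ranked inhibitors of TNF-induced VCAM-1 adhesion protein staining, with the hit upheld by image or statistical review; inactive = the rest, including hits rejected on review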;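 also: 0% = TNFa with vehicle and 100% = cells without TNFa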
FPRL1 binder: ligands of human FPRL1, also counter-screen for FPR ligands | P25090 | inhibition, %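 (tested at 6.7 µM)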 | 24,000 tested, 0.3% active | FPRL1-expressing cells, fluorescent ligand binding inhibition, flow cytometry;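 also: 0% = buffer alone and 100% = receptor blocker peptide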
Target sequence (P25090 whole entry, looked up): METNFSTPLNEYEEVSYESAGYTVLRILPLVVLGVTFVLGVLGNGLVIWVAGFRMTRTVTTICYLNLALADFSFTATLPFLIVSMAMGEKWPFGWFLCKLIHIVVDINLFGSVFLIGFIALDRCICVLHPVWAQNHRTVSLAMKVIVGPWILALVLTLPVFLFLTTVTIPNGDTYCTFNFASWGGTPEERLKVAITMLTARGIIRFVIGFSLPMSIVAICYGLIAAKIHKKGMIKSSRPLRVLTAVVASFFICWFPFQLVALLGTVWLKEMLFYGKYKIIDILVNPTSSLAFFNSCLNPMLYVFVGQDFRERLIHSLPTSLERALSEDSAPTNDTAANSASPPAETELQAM
VCAM-1 augmentation: enhancers of VCAM-1 display on endothelial cells, imaging, high-content imaging, pooled HUVEC, TNFa stimulus (AID 457). 10,000 tested, 0.2% active. calls only. Pooled HUVEC, TNFa-induced VCAM-1 immunofluorescence imaging; hits of this screen are not shown here;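 active = a top-ranked rise in VCAM-1 staining upheld on image or statistical review; inactive = the rest, including candidates rejected on review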;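 also: compounds tested at 5 µM in the well; cells exposed to compound for 24 hours before fixing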
VCAM-1 down imaging: inhibitors of TNFa-induced VCAM-1 surface display, imaging, high-content imaging, pooled HUVEC, TNFa stimulus (AID 456); HUVEC TNFa-induced VCAM-1 surface expression, immunofluorescence imaging; numbers were filed only for top-ranked candidate wells; inhibition, % at 5 µM; hits with a dose series show IC50 in µM; 10,000 tested, 0.2% active;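 active = top tenth filtered wells with inhibition above zero that passed visual or statistical confirmation; inactive = the rest, including hits rejected on review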;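 also: 0% = stimulated vehicle wells and 100% = unstimulated cells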
* hit, by the source's call; i = inactive; . = not tested or not shown.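 The calls were made as follows, unless noted: active = mean above 30%; inconclusive = self-fluorescent; inactive = the rest.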

[1] Cc1oc(-c2cccs2)nc1CS(=O)CC(=O)NCCCN1CC(C)CC(C)C1 (stereo not drawn)
[2] CCOC(=O)c1[nH]nc2c1C(=O)N(Cc1ccccc1)C2=O
[3] CCCC(C(=O)NCc1ccco1)N(C(=O)CNS(=O)(=O)c1ccc(Cl)cc1)C1CCCC1 (stereo not drawn)
[4] O=C(CN1CCN(S(=O)(=O)c2ccc(Br)cc2)CC1)Nc1ccc(F)cc1
[5] COc1ccccc1CNC(=O)CSc1nc2nc(C)cc(C)n2n1

entry no.	1	2	3	4	5
FPR binder	-15	5	18	5	5
VCAM-1 down	.	.	i	.	.
FPRL1 binder	0	-3	11	-1	1
VCAM-1 augmentation	.	.	i	.	.
VCAM-1 down imaging	.	.	i	.	.

[6] Cc1oc2c(C)c(O)ccc2c(=O)c1-c1ccc2ccccc2n1
[7] Cc1cc(Nc2ccccc2N2CCOCC2)n2ncnc2n1
[8] O=S(=O)(c1ccccc1)N1CCN(C2CCCCCCC2)CC1
[9] CCOC(=O)N1CCN(C(=O)COc2cc(=O)n(CC)c3ccccc23)CC1
[10] O=C1c2ccccc2C(=O)N1CCN1CCOCC1

entry no.	6	7	8	9	10
FPR binder	-13	8	-12	-5	-1
VCAM-1 down	.	i	i	.	.
FPRL1 binder	-3	4	-1	-3	-2
VCAM-1 augmentation	.	i	i	.	.
VCAM-1 down imaging	.	i	i	.	.

[11] CCC(SC1=Nc2ccccc2C2=NC(CC(C)C)C(=O)N12)C(=O)Nc1ccc2c(c1)OCO2 (stereo not drawn)
[12] Cc1cccc(Cn2cnc3c(nnn3Cc3ccccc3F)c2=O)c1
[13] O=C(CN1CCN(c2ccccn2)CC1)Nc1cc(C(F)(F)F)ccc1Cl
[14] CC(=O)c1ccc(N2CCN(C(=O)CCCn3c(=S)[nH]c4cc5c(cc4c3=O)OCO5)CC2)cc1
[15] Cn1c(=O)oc2cc(S(=O)(=O)N3CCN(c4ccccn4)CC3)ccc21

entry no.	11	12	13	14	15
FPR binder	58*	10	-9	12	8
VCAM-1 down	.	.	.	.	i
FPRL1 binder	14	-9	-2	-1	4
VCAM-1 augmentation	.	.	.	.	i
VCAM-1 down imaging	.	.	.	.	i

[16] Cc1c(NC(=O)C(C)OC(=O)c2cc3c4ccccc4n(C)c3s2)c(=O)n(-c2ccccc2)n1C (stereo not drawn)
[17] COc1cc(Cn2c(C(=O)O)cc3sccc32)cc(OC)c1OC
[18] COc1ccc(N(CC(=O)N2CCCCC2)S(=O)(=O)c2c(C)nn(C)c2C)cc1
[19] C#CCSc1nsc(SCC#C)c1C#N
[20] COC1(OC)N=C(N)C2(C#N)C(c3ccc(F)cc3)C12C#N (stereo not drawn)

entry no.	16	17	18	19	20
FPR binder	12	-4	2	8	2
VCAM-1 down	i	i	.	.	.
FPRL1 binder	0	-2	-1	8	9
VCAM-1 augmentation	i	i	.	.	.
VCAM-1 down imaging	i	i	.	.	.

Grouped by structure, the entries above with fluorine.
[4] O=C(CN1CCN(S(=O)(=O)c2ccc(Br)cc2)CC1)Nc1ccc(F)cc1
[12] Cc1cccc(Cn2cnc3c(nnn3Cc3ccccc3F)c2=O)c1
[13] O=C(CN1CCN(c2ccccn2)CC1)Nc1cc(C(F)(F)F)ccc1Cl
[20] COC1(OC)N=C(N)C2(C#N)C(c3ccc(F)cc3)C12C#N (stereo not drawn)

entry no.	4	12	13	20
FPR binder	5	10	-9	2
VCAM-1 down	.	.	.	.
FPRL1 binder	-1	-9	-2	9
VCAM-1 augmentation	.	.	.	.
VCAM-1 down imaging	.	.	.	.

More compounds.
[21] COc1ccc(Cc2noc(-c3ccc(C)cc3)n2)cc1
[22] CC(=O)c1cc2c(cc1NC(=O)c1cc(C)nn1-c1ccccc1)OCO2
[23] O=C(CCSc1nnc2scc(-c3ccccc3)n12)Nc1nc(-c2ccccc2)ns1
[24] Cc1oc2c(CN3CCCC3)c(O)ccc2c(=O)c1Oc1ccccc1Br
[25] CC(C)C(=O)NC(C)C(c1cccs1)N1CCN(C)CC1 (stereo not drawn)

entry no.	21	22	23	24	25
FPR binder	-8	10	2	-3	-4
VCAM-1 down	i	.	.	.	.
FPRL1 binder	9	3	-3	-3	16
VCAM-1 augmentation	i	.	.	.	.
VCAM-1 down imaging	i	.	.	.	.

[26] COc1ccc(OC)c(C2CC(=O)c3c([nH]c(C(=O)OCC4CCCO4)c3C)C2)c1 (stereo not drawn)
[27] N#CC(C(=O)C1CCCCC1)c1nc2ccccc2[nH]1 (stereo not drawn)
[28] CC1(C)Cc2ccccc2C(=NCCCC(=O)O)N1
[29] CC1CCN(c2c(NCc3ccc(C(=O)NCc4cccnc4)cc3)c(=O)c2=O)CC1
[30] Cc1cc(NC(=O)c2cc(-c3cccs3)nc3ccccc23)no1

entry no.	26	27	28	29	30
FPR binder	9	2	2	1	2
VCAM-1 down	.	i	.	.	.
FPRL1 binder	0	-3	10	4	0
VCAM-1 augmentation	.	i	.	.	.
VCAM-1 down imaging	.	i	.	.	.

Single records (already shown).
CC1(C)Cc2ccccc2C(=NCCCC(=O)O)N1 is entered as FPR binder: 2; VCAM-1 down: .; FPRL1 binder: 10; VCAM-1 augmentation: .; VCAM-1 down imaging: .
Cc1cc(NC(=O)c2cc(-c3cccs3)nc3ccccc23)no1 is entered as FPR binder: 2; VCAM-1 down: .; FPRL1 binder: 0; VCAM-1 augmentation: .; VCAM-1 down imaging: .

(next part)
[31] COc1cc(OC)c(NS(=O)(=O)c2coc(C(N)=O)c2)cc1Cl
[32] CN(C)S(=O)(=O)c1ccc(C(=O)NCc2cccs2)cc1
[33] CCOC(=O)N1CCN(S(=O)(=O)c2ccc3c(c2)SC(C)C(=O)N3)CC1 (stereo not drawn)
[34] CN(C(=O)c1c(Cl)nc2sccn12)C1CCCCC1
[35] CCCC1(C(=O)O)NC(c2ccc(OC)cc2O)C2C(=O)N(c3ccc(OC)cc3)C(=O)C21 (stereo not drawn)

entry no.	31	32	33	34	35
FPR binder	6	0	7	-4	0
VCAM-1 down	.	i	.	i	.
FPRL1 binder	4	-3	4	-3	0
VCAM-1 augmentation	.	i	.	i	.
VCAM-1 down imaging	.	i	.	i	.

[36] O=C(NCSc1ccncn1)c1ccccc1
[37] Cc1cccc(NC(=O)NCCN2C(=O)C3C4C=CC(C4)C3C2=O)c1 (stereo not drawn)
[38] COc1ccc(CCNC(=O)c2cc(-c3cccs3)on2)cc1OC
[39] COCCCN1C(=O)C(O)=C(C(=O)c2ccco2)C1c1ccc(Br)cc1 (stereo not drawn)
[40] CCC(=O)N1CCc2cc(S(=O)(=O)NC(C(=O)N3CCc4ccccc4C3)C(C)C)ccc21 (stereo not drawn)

entry no.	36	37	38	39	40
FPR binder	-1	1	-3	48*	8
VCAM-1 down	.	.	.	i	.
FPRL1 binder	19	-2	-2	-4	5
VCAM-1 augmentation	.	.	.	i	.
VCAM-1 down imaging	.	.	.	i	.

[41] CC(=O)C1=C(C)Nc2ncnn2C1c1ccccc1Cl (stereo not drawn)
[42] CC(=O)Nc1cccc(NC(=O)c2ccco2)c1
[43] COc1cc2c(C(=O)NCc3ccccn3)cn(CC(C)C)c(=O)c2cc1OC
[44] Cc1cc(OCC(=O)N(C)C)c2c(-c3ccccc3)cc(=O)oc2c1
[45] CC(=O)Nc1ccc(S(=O)(=O)CCC#N)cc1

entry no.	41	42	43	44	45
FPR binder	0	-4	-1	2	0
VCAM-1 down	.	i	.	.	i
FPRL1 binder	-3	2	-2	0	5
VCAM-1 augmentation	.	i	.	.	i
VCAM-1 down imaging	.	i	.	.	i

[46] O=C(NCCCN1CCOCC1)c1cc(-c2cccs2)on1
[47] Cc1ccc(Cn2ccc(NC(=O)c3cc(-c4ccco4)on3)n2)cc1
[48] Nc1nc(CSc2nc3ccccc3[nH]2)nc(N2CCOCC2)n1
[49] Cc1cccc(N2CCN(S(=O)(=O)c3ccc4c(c3)c(=O)n(C)c(=O)n4C)CC2C)c1 (stereo not drawn)
[50] CCn1c(C)csc1=NC(=O)c1ccccc1O

entry no.	46	47	48	49	50
FPR binder	0	-1	-4	0	0
VCAM-1 down	.	.	i	.	.
FPRL1 binder	2	0	0	-5	4
VCAM-1 augmentation	.	.	i	.	.
VCAM-1 down imaging	.	.	i	.	.

[51] C#CC(C)(CC)NC(=O)c1cc(OC)c(OC)c(OC)c1 (stereo not drawn)
[52] CCCCOC(=O)Cn1c(=N)n(CCC)c2ccccc21
[53] COc1cccc(C2C(C(=O)c3cc4ccccc4o3)=C(O)C(=O)N2CCN(C)C)c1OC (stereo not drawn)
[54] COc1ccc(OC)c(C(=O)c2ccc(C(=O)O)cc2)c1
[55] COC(=O)c1sc(NC(=O)C2CCCCC2C(=O)O)c(C(=O)OC)c1C (stereo not drawn)

entry no.	51	52	53	54	55
FPR binder	-3	1	0	-3	-1
VCAM-1 down	.	.	i	i	.
FPRL1 binder	-4	8	5	-1	0
VCAM-1 augmentation	.	.	i	i	.
VCAM-1 down imaging	.	.	i	i	.

[56] CCSc1nnc(NC(=O)CSc2nccn2-c2cccc(C)c2C)s1
[57] O=C(CCNS(=O)(=O)c1ccc2c(c1)CCC(=O)N2)Nc1ccc2c(c1)OCCO2
[58] CCn1c(SCC(=O)Nc2cccc(C)c2)nc2c(c1=O)SC(C)C2 (stereo not drawn)
[59] O=C(CCN1C(=O)C2C3C=CC(C3)C2C1=O)Nc1c(F)cc(F)cc1Br (stereo not drawn)
[60] COc1ccc(NC(=O)CN2C(=O)CC(C)(C)S(=O)(=O)c3ccccc32)cc1

entry no.	56	57	58	59	60
FPR binder	8	-5	10	0	4
VCAM-1 down	.	.	i	i	.
FPRL1 binder	-2	2	5	-5	1
VCAM-1 augmentation	.	.	i	i	.
VCAM-1 down imaging	.	.	i	i	.

[61] CC(=O)C(Sc1ncnc2c1nnn2-c1ccc(F)cc1)C(=O)N(C)C (stereo not drawn)
[62] CCN(C(=O)c1cn(C)c(=O)c2cc(OC)c(OC)cc12)c1ccccc1C
[63] O=C(CCCCn1c(=O)[nH]c2ccsc2c1=O)NCC1CCCO1 (stereo not drawn)
[64] O=C(c1ccc(=O)[nH]c1)N(Cc1ccco1)C1(C(=O)NC2CCCC2)CCCCC1
[65] COc1ccc(C2CC(c3ccco3)n3ncnc3N2)cc1 (stereo not drawn)

entry no.	61	62	63	64	65
FPR binder	2	-4	5	-4	-1
VCAM-1 down	i	i	.	i	i
FPRL1 binder	2	-6	2	0	4
VCAM-1 augmentation	i	i	.	i	i
VCAM-1 down imaging	i	i	.	i	i

[66] COc1ccc(C)cc1NC(=O)c1cc2c(C)nc3ccccc3c2o1
[67] COCCCNC(=O)c1cc2c(s1)CS(=O)(=O)C2
[68] CC1(C)CC(=O)c2c(noc2-c2ccccc2)C1
[69] O=C(NC1CCCCCC1)c1nnc(Cc2ccc(Cl)cc2)o1
[70] Cc1ccc2oc(=O)c3cnn(CC(=O)NCCCOC(C)C)c3c2c1

entry no.	66	67	68	69	70
FPR binder	7	-9	-4	0	-1
VCAM-1 down	.	.	.	.	.
FPRL1 binder	-7	-6	0	-5	-2
VCAM-1 augmentation	.	.	.	.	.
VCAM-1 down imaging	.	.	.	.	.

Grouped by structure, the entries above containing bromine
[4] O=C(CN1CCN(S(=O)(=O)c2ccc(Br)cc2)CC1)Nc1ccc(F)cc1
[24] Cc1oc2c(CN3CCCC3)c(O)ccc2c(=O)c1Oc1ccccc1Br
[39] COCCCN1C(=O)C(O)=C(C(=O)c2ccco2)C1c1ccc(Br)cc1 (stereo not drawn)
[59] O=C(CCN1C(=O)C2C3C=CC(C3)C2C1=O)Nc1c(F)cc(F)cc1Br (stereo not drawn)

entry no.	4	24	39	59
FPR binder	5	-3	48*	0
VCAM-1 down	.	.	i	i
FPRL1 binder	-1	-3	-4	-5
VCAM-1 augmentation	.	.	i	i
VCAM-1 down imaging	.	.	i	i

Next part.
[71] COc1ccc(N2C(=O)CCC(C(=O)Nc3cccc(C)n3)C2c2ccc(OC)c(OC)c2)cc1 (stereo not drawn)
[72] O=C(NCc1cccnc1)C1c2ccccc2C(=O)N1Cc1ccco1 (stereo not drawn)
[73] COc1ccc(C(=O)Nc2ccc(S(=O)(=O)Nc3nccnc3OC)cc2)cc1OC
[74] Cc1c(C(=O)O)[nH]c2c1C(=O)CC(c1ccccc1)C2 (stereo not drawn)
[75] O=C(C1CCN(S(=O)(=O)c2cnc[nH]2)CC1)N1CCN(c2ncccn2)CC1
[76] Cn1c(=O)oc2cc(S(=O)(=O)NCc3ccccn3)ccc21
[77] Cc1cccc(C)c1OCC(=O)Nc1cccc(NC(=O)c2ccco2)c1
[78] Cc1ccc(S(=O)(=O)Cn2nnnc2CN(Cc2ccco2)Cc2cccs2)cc1

entry no.	71	72	73	74	75	76	77	78
FPR binder	5	0	3	-2	-3	6	17	-5
VCAM-1 down	.	i	i	.	i	.	i	i
FPRL1 binder	-5	-1	0	-6	0	15	-9	-4
VCAM-1 augmentation	.	i	i	.	i	.	i	i
VCAM-1 down imaging	.	i	i	.	i	.	i	i

Compound activity: PubChem BioAssay, several laboratories

This is a subset, so the mix of outcomes need not match the whole.
